# CHT block: inhibitors of human choline transporter CHT; High affinity choline transporter 1 (Homo sapiens), Q9GZV3; CHT-expressing cells, membrane potential dye, choline response; stronger effect = lower value; B-score at 10 µM; actives 0.86% (n = 310,000);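 active = B-score over 3 SD under the library average, and starting fluorescence ratio not unusually high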;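 note: choline stimulus applied at its EC90 after an EC20 pre-addition; B-score computed on integrated fluorescence ratio after choline addition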
# Target sequence (Q9GZV3 whole entry, looked up): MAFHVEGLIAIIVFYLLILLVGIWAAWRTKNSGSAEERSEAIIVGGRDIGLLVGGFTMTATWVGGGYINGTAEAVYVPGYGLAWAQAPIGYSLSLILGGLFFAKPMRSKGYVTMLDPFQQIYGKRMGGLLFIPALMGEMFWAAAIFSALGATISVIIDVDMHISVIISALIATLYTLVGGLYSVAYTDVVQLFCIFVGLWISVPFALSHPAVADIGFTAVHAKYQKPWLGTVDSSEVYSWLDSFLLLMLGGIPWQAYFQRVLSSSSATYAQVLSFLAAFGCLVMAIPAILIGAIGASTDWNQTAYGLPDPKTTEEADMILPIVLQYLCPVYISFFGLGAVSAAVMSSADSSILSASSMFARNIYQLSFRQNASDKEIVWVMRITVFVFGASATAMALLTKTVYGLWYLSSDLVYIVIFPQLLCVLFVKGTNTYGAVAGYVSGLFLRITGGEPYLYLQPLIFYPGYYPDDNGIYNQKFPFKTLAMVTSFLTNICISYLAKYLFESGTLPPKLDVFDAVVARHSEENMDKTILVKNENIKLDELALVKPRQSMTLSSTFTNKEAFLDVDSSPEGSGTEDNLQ
# Calls only; i = inactive.
O=c1ccc(C(F)(F)F)cn1Cc1cc(=O)n2ccsc2n1
  CHT block: i
O=C(c1cnn2c(C(F)(F)F)cc(-c3cccs3)nc12)N1CCCC1
  CHT block: i
CC(=O)C1=NN(c2ccccc2)C(c2ccc3c(c2)OCO3)N1c1ccc(N2CCOCC2)cc1 (stereo not given)
  CHT block: i
O=C(Cc1cccs1)Nc1cccnc1
  CHT block: i
COc1ccc(/C=C2\SC(=O)N(CC(=O)NN3CCN(C)CC3)C2=O)cc1OC
  CHT block: i
Cc1ccc(NC2=NC(c3ccc(O)cc3)n3c(nc(C)cc3=O)N2)cc1 (stereo not given)
  CHT block: i
COc1ccccc1CNc1ccccc1F
  CHT block: i
CCc1nnc(NC(=O)Cc2cccs2)s1
  CHT block: i
CN1CCN(S(=O)(=O)c2cccc(C(=O)Nc3ccccc3N3CCCC3)c2)CC1
  CHT block: i
CCSc1nnc(NC(=O)CCCOc2ccc(C)cc2)s1
  CHT block: i
CCOc1ccc(CCNC(=O)Cn2cccc2C(=O)c2ccccc2)cc1OCC
  CHT block: i
COc1ccc(OCC(=O)NCCNC(=O)c2ccncc2)cc1
  CHT block: i
CCCOc1ccc(/C=N/NC(=O)CSc2ccccn2)cc1OC
  CHT block: i
COC(=O)c1sccc1NC(=O)c1ccco1
  CHT block: i
Cc1cccc(NC(=O)CCNC(=O)c2ccco2)c1
  CHT block: i

Cc1cc([N+](=O)[O-])c(C)cc1-c1ccc(/C=N/NC(=O)c2cccnc2)o1
  CHT block: i
O=C(CCCN=C1NS(=O)(=O)c2ccccc21)OCC(=O)c1ccccc1
  CHT block: i
Cn1cccc1Cc1nnc(SCC(=O)NC2CCCC2)n1-c1ccc(F)cc1
  CHT block: i
CCOC(=O)/C(C#N)=N\Nc1ccc(S(=O)(=O)Nc2nc(C)cc(C)n2)cc1
  CHT block: i
COc1ccc(NC(=O)O/N=C/c2ccccc2)cc1
  CHT block: i
O=C(N/N=C/c1ccc(-c2cccc([N+](=O)[O-])c2)o1)c1cccs1
  CHT block: i
Cn1c(CN2CCN(c3ccccc3NS(C)(=O)=O)CC2)nc2ccccc21
  CHT block: i
COc1ccc(C2=NN(c3nc4ccccc4s3)C(=O)/C2=C\N(C)C)cc1
  CHT block: i
CC(C)N(C(=O)COC(=O)c1cccc(C(=O)OCC(=O)N(C(C)C)C(C)C)n1)C(C)C
  CHT block: i
COCc1nnc(NC(=O)CCN2C(=O)c3ccccc3C2=O)s1
  CHT block: i
CC(=O)c1nnn(-c2ccc(F)cc2F)c1C
  CHT block: i
Cc1ccc(Cn2nc(C)c(NC(=O)CCCn3nc([N+](=O)[O-])c(Cl)c3C)c2C)cc1
  CHT block: i
CCC(=O)n1nc(-c2ccco2)nc1SCc1ccccc1
  CHT block: i
C/C(CC1(O)C(=O)N(Cc2ccccc2)c2ccccc21)=N\O (stereo not given)
  CHT block: i
O=C(Nc1nccs1)c1ccc(N2C(=O)[C@@H]3[C@H](C2=O)[C@H]2C=C[C@@H]3C2)cc1
  CHT block: i

COc1ccc(C(=O)NNC(=O)c2cc3cccc(OC)c3oc2=O)cc1
  CHT block: i
CCCCNc1nc(=S)[nH]c2cc(OC)c(OC)cc12
  CHT block: i
O=C(OCc1nnc(-c2ccccc2)o1)C1CCN(S(=O)(=O)c2cccs2)CC1
  CHT block: i
Clc1ccc(CN2CCCCCCC2)cc1
  CHT block: i
COc1ccccc1N1CCN(CC(=O)N(CC(C)C)c2c(N)n(CC(C)C)c(=O)[nH]c2=O)CC1
  CHT block: i
Cc1cc(C)nc(Sc2c(C)n[nH]c2C)n1
  CHT block: i
CCOC(=O)c1c(NC(=O)c2cccs2)sc(C(=O)N2CCOCC2)c1C
  CHT block: i
CC(C)[C@@H](CSc1ccccc1)N1CCN(Cc2ccccc2)CCC1=O
  CHT block: i
O=C(Nc1ccc(Cl)cc1)C(c1ccccc1)N1CCOCC1 (stereo not given)
  CHT block: i
CC(C)Oc1ccc2c(c1)OC(c1ccccc1)(C(F)(F)F)NC2=O (stereo not given)
  CHT block: i
C=CCN(Cc1nc(-c2ccccc2)no1)C(=O)c1ccoc1C
  CHT block: i
O=C1CCCc2nc(N3CCCCC3)sc21
  CHT block: i
O=C(Nc1ccccc1C(=O)O)c1ccc(NC(=O)c2ccc(Br)o2)cc1
  CHT block: i
CCN(CC)S(=O)(=O)c1cc(NS(=O)(=O)c2c(Cl)cccc2Cl)ccc1C
  CHT block: i
CC(=O)/C(=N\Nc1cccc(Cl)c1)Sc1cccc2cccnc12
  CHT block: i

O=C(c1cccc2ccccc12)N1CCN(Cc2ccccc2F)CC1
  CHT block: i
Cc1noc(C)c1COc1ccccc1C(=O)NCc1ccccc1Cl
  CHT block: i
O=C(NCCCN1CCCCC1)C1CCC(=O)N1CCc1ccccc1 (stereo not given)
  CHT block: i
Cc1ccc(-c2nc(-c3ccccn3)no2)cc1Cl
  CHT block: i
Oc1csc(Cc2nc(-c3ccccc3F)cs2)n1
  CHT block: i
O=C(O)/C=C/C(=O)Nc1ccc(SC(F)(F)F)cc1
  CHT block: i
CN1CCN(C(=O)C2=C[C@H](c3ccc(Br)cc3)C[C@H](OCCCCO)O2)CC1
  CHT block: i
CC1C(=NO)C(C)C(c2ccccc2)NC1c1ccccc1 (stereo not given)
  CHT block: i
O=C(CN1C(=O)c2cccnc2Oc2ccc(Cl)cc21)Nc1ccccc1F
  CHT block: i
CCOc1ccc(CCNC(=O)Cn2nc(C)n3cccc3c2=O)cc1OCC
  CHT block: i
COc1ccccc1CNC(=O)c1ccc(-c2ccccc2Cl)o1
  CHT block: i
S=C(NCCN1CCOCC1)NC1CCCCC1
  CHT block: i
CCN(c1ccccc1)S(=O)(=O)c1ccc2[nH]c(=O)c(=O)[nH]c2c1
  CHT block: i
CCNC(=S)NNC(=O)Cn1nc(C)cc1C
  CHT block: i
O=C(CSc1ccc2nnc(-c3cccc(F)c3)n2n1)N1CCCc2ccccc21
  CHT block: i

Cc1c(C(=O)NCc2ccccc2)oc2c1C(=O)CCC2
  CHT block: i
CC(=O)c1cccc(NC(=O)CCNC(=O)c2cccc(C)c2)c1
  CHT block: i
COCCn1c(=N)c(S(=O)(=O)c2ccc(F)cc2)cc2c(=O)n3cccc(C)c3nc21
  CHT block: i
Nc1[nH]ncc1C(=O)Nc1cccc(C(F)(F)F)c1
  CHT block: i
O=C(Nc1ccc(Cl)c(C(F)(F)F)c1)C1CCCN(S(=O)(=O)c2cnc[nH]2)C1 (stereo not given)
  CHT block: i
NS(=O)(=O)c1cccc(NC(=O)c2cc(-c3cccs3)nc3ccccc23)c1
  CHT block: i
Cc1ccc(NC(=O)c2ccc(OCc3c(C)noc3C)cc2)cc1
  CHT block: i
O=C(Cn1nc(C(=O)O)c2ccccc2c1=O)Nc1nc(-c2ccccc2)cs1
  CHT block: i
COc1cc(C2Nc3ccc4ncccc4c3C3=C2C(=O)CCC3)cc(OC)c1O (stereo not given)
  CHT block: i
COc1ccc2[nH]cc(CCNC(=O)C3CCCNC3=O)c2c1 (stereo not given)
  CHT block: i
Cc1cc(/C=C(\C#N)C(=O)N2CCOCC2)c(C)n1C1CCCC1
  CHT block: i
COC(=O)c1sc2ncccc2c1OCc1ccc(Cl)cc1Cl
  CHT block: i
Cc1cccc(N2CCN(C(=O)CNC(=O)c3ccccc3)CC2)c1C
  CHT block: i
C#CCN1C(=O)C(O)(CC(=O)/C=C/C=C/c2ccccc2)c2ccccc21 (stereo not given)
  CHT block: i
COc1ccc(NC(=S)N(CCN(C)C)Cc2cccs2)cc1
  CHT block: i

# 30 entries already listed, ordered by molar mass, rising.
CCNC(=S)NNC(=O)Cn1nc(C)cc1C
  CHT block: i
Nc1[nH]ncc1C(=O)Nc1cccc(C(F)(F)F)c1
  CHT block: i
S=C(NCCN1CCOCC1)NC1CCCCC1
  CHT block: i
Cc1c(C(=O)NCc2ccccc2)oc2c1C(=O)CCC2
  CHT block: i
O=C(O)/C=C/C(=O)Nc1ccc(SC(F)(F)F)cc1
  CHT block: i
Oc1csc(Cc2nc(-c3ccccc3F)cs2)n1
  CHT block: i
CC1C(=NO)C(C)C(c2ccccc2)NC1c1ccccc1 (stereo not given)
  CHT block: i
COc1ccc2[nH]cc(CCNC(=O)C3CCCNC3=O)c2c1 (stereo not given)
  CHT block: i
CC(=O)c1cccc(NC(=O)CCNC(=O)c2cccc(C)c2)c1
  CHT block: i
Cc1cc(/C=C(\C#N)C(=O)N2CCOCC2)c(C)n1C1CCCC1
  CHT block: i
Cc1ccc(NC(=O)c2ccc(OCc3c(C)noc3C)cc2)cc1
  CHT block: i
COc1ccccc1CNC(=O)c1ccc(-c2ccccc2Cl)o1
  CHT block: i
CCN(c1ccccc1)S(=O)(=O)c1ccc2[nH]c(=O)c(=O)[nH]c2c1
  CHT block: i
O=C(c1cccc2ccccc12)N1CCN(Cc2ccccc2F)CC1
  CHT block: i
COc1ccc(NC(=S)N(CCN(C)C)Cc2cccs2)cc1
  CHT block: i
Cc1cccc(N2CCN(C(=O)CNC(=O)c3ccccc3)CC2)c1C
  CHT block: i
CC(=O)/C(=N\Nc1cccc(Cl)c1)Sc1cccc2cccnc12
  CHT block: i
O=C(NCCCN1CCCCC1)C1CCC(=O)N1CCc1ccccc1 (stereo not given)
  CHT block: i
COC(=O)c1sc2ncccc2c1OCc1ccc(Cl)cc1Cl
  CHT block: i
Cc1noc(C)c1COc1ccccc1C(=O)NCc1ccccc1Cl
  CHT block: i
CCOc1ccc(CCNC(=O)Cn2nc(C)n3cccc3c2=O)cc1OCC
  CHT block: i
COc1cc(C2Nc3ccc4ncccc4c3C3=C2C(=O)CCC3)cc(OC)c1O (stereo not given)
  CHT block: i
O=C(Cn1nc(C(=O)O)c2ccccc2c1=O)Nc1nc(-c2ccccc2)cs1
  CHT block: i
NS(=O)(=O)c1cccc(NC(=O)c2cc(-c3cccs3)nc3ccccc23)c1
  CHT block: i
O=C(CSc1ccc2nnc(-c3cccc(F)c3)n2n1)N1CCCc2ccccc21
  CHT block: i
O=C(Nc1ccccc1C(=O)O)c1ccc(NC(=O)c2ccc(Br)o2)cc1
  CHT block: i
O=C(Nc1ccc(Cl)c(C(F)(F)F)c1)C1CCCN(S(=O)(=O)c2cnc[nH]2)C1 (stereo not given)
  CHT block: i
COCCn1c(=N)c(S(=O)(=O)c2ccc(F)cc2)cc2c(=O)n3cccc(C)c3nc21
  CHT block: i
CCN(CC)S(=O)(=O)c1cc(NS(=O)(=O)c2c(Cl)cccc2Cl)ccc1C
  CHT block: i
CN1CCN(C(=O)C2=C[C@H](c3ccc(Br)cc3)C[C@H](OCCCCO)O2)CC1
  CHT block: i

# Two consecutive records from above:
C#CCN1C(=O)C(O)(CC(=O)/C=C/C=C/c2ccccc2)c2ccccc21 (stereo not given)
  CHT block: i
COc1ccc(NC(=S)N(CCN(C)C)Cc2cccs2)cc1
  CHT block: i

# Other structures:
CN(C)/C=C(\C#N)C(=O)c1cccnc1Oc1cccc(F)c1
  CHT block: i
COc1ccc(C2CC(=O)C3=C(C2)NC(C)=C(C#N)C3c2ccc(N(C)C)cc2)cc1 (stereo not given)
  CHT block: i
O=C(c1ccco1)n1nc(-c2ccc(Cl)cc2)nc1NCc1ccco1
  CHT block: i
S=c1[nH]nc(-c2ccco2)n1/N=C/c1cccs1
  CHT block: i
N/C(=N\OC(=O)CCC1CCCC1)c1cccnc1
  CHT block: i
COc1cccc(C2C(C(C)=O)=C(O)C(=O)N2Cc2ccco2)c1 (stereo not given)
  CHT block: i
CCc1ccc(NC(=O)c2ccnc(C(C)(C)C)c2)cc1
  CHT block: i
O=C(CSc1nc(N2CCOCC2)nc(N2CCOCC2)n1)Nc1ccc(Cl)cc1Cl
  CHT block: i
Cc1ccc(NC(=O)C2C(c3ccccc3)C2(Cl)Cl)c(C)c1 (stereo not given)
  CHT block: i
O=C(Cn1cnc2ccccc21)OCC(=O)N1CCCc2ccccc21
  CHT block: i
O=C(Nc1cccc(-n2cnnn2)c1)c1cccs1
  CHT block: i
CCOC(=O)C1CCN(C(=O)COC(=O)c2cccc(F)c2)CC1
  CHT block: i
Cc1ccc(C(CC(=O)NCCCN(C)C)c2ccc(OC(C)C)cc2)cc1 (stereo not given)
  CHT block: i
CCOc1ccc(NC(=O)CSc2nnc(Cn3cnc([N+](=O)[O-])n3)n2C)cc1
  CHT block: i
COc1ccc(C(CC(=O)O)NC(=O)OC(C)(C)C)cc1 (stereo not given)
  CHT block: i

Cc1ccc(N2CC(c3nc4ccccc4n3C)CC2=O)cc1C (stereo not given)
  CHT block: i
N#Cc1c(NC(=O)C2CC(Cl)=CCC2C(=O)O)sc2c1CCCCC2 (stereo not given)
  CHT block: i
CCN(C(=O)Cn1c(=O)oc2cc(S(=O)(=O)N3CCCC3)ccc21)c1ccc(OC)cc1
  CHT block: i
CC(C)Cc1cc(C(=O)Nc2ccccc2)c2ccccc2n1
  CHT block: i
COc1ccc(C(=O)N/C(=C/c2cccnc2)C(=O)N2CCCCCC2)cc1OC
  CHT block: i
O=[N+]([O-])c1cc(S(=O)(=O)/N=C(/c2ccccc2)N2CCOCC2)ccc1Cl
  CHT block: i
O=C(Nc1cccc2c1CCCC2)c1ccco1
  CHT block: i
CC(C)(C)OC(=O)Cn1c(=O)cnc2ccccc21
  CHT block: i
COc1cccc(CN(C(=O)Cc2c[nH]c3ccccc23)C(C(=O)NC2CCCCC2)c2cccs2)c1 (stereo not given)
  CHT block: i
O=C(CN(C(=O)CNS(=O)(=O)c1ccccc1)c1ccc(Cl)cc1)NCC1CCCO1 (stereo not given)
  CHT block: i
N#Cc1c(-c2ccccc2Cl)cc(-c2ccccc2)[nH]c1=S
  CHT block: i
COc1cccc(N2CC(O)=C(c3nc4ccccc4s3)C2=N)c1
  CHT block: i
Cc1cc(-n2nc(C)cc2C)nc(N)n1
  CHT block: i
COc1ccc(-c2csc(/C=C/c3ccc4c(c3)OCO4)n2)cc1OC
  CHT block: i
CCOC(=O)CSC1=N/C(=C\c2cccnc2)C(=O)N1c1ccc(OC)cc1
  CHT block: i

Cc1c(C(=O)NN2CCOCC2)oc2ccccc12
  CHT block: i
Cc1cc(C)nc(SCC(=O)Nc2cccc(S(=O)(=O)N(C)C)c2)n1
  CHT block: i
CCc1ccc2c(CN(C)Cc3ccccc3OC)cc(=O)oc2c1
  CHT block: i
COc1cc(C(=O)OCC(=O)Nc2ccc(N3CCOCC3)cc2)ccc1OCC(C)C
  CHT block: i
CCCN1CNC(=S)N(CCc2ccccc2)C1
  CHT block: i

# Not all compounds are listed, and most or all hits are left out here.
